# Screening data (PubChem BioAssay)
# PKD1 inh: inhibitors of human PKD1 kinase, biochemical, fluorescence polarization. inhibition, %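 (about 10 µM by stock and volumes)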. PKD1 kinase fluorescence polarization assay. Serine/threonine-protein kinase D1 (Homo sapiens), Q15139. AID 797, 2007. 200,000 tested, 0.056% active;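 active means inhibition of 50% or more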;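 further: controls were vehicle for no effect and a reference inhibitor for full effect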
# Target sequence (Q15139 whole entry, looked up): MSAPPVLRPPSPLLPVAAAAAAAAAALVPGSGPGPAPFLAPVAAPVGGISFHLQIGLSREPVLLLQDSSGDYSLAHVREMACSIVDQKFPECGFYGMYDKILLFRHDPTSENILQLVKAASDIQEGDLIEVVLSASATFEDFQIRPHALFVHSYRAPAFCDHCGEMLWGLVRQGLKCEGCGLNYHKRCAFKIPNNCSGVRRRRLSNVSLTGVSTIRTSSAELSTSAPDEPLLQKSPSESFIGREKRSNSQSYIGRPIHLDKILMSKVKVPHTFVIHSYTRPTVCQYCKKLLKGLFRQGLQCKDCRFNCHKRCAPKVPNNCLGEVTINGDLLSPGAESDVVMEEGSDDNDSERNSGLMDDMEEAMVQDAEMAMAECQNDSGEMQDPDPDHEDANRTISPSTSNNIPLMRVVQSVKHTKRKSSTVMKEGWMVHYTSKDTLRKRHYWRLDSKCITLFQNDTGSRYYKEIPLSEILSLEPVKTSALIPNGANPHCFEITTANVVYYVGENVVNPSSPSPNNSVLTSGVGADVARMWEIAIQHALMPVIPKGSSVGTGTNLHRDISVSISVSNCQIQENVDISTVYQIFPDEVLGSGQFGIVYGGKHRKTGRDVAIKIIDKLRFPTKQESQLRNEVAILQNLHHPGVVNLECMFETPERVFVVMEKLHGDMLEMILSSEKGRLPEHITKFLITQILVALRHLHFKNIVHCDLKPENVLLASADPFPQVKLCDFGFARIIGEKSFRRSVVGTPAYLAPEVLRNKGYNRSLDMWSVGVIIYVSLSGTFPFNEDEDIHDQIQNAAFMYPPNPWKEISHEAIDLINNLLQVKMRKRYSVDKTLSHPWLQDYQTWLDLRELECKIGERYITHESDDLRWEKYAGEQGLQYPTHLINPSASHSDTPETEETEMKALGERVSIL
# RGS16-Gao HTS: modulators of RGS16 binding to Galphao, primary screen, biochemical, human proteins, multiplexed bead flow cytometry; Regulator of G-protein signaling 16 (Homo sapiens) + Guanine nucleotide-binding protein …; bead-based flow cytometry RGS16-Galphao binding, fluorescence; actives lie on both sides; binding response (% of control), % at 10 µM; 220,000 tested, 0.38% active;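 active means below 25% or above 175%, edge rows of some plates excepted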;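 further: Galphao activated by GDP with aluminum fluoride before binding; 100% = wells without compound and 0% = beads without RGS; some results beyond the cut were filed as inactive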
# HSV augment: enhancers of HSV replication in host cells, fold increase, host cell viability. maximum fold increase. 220,000 tested, 0.005% active. HSV replication augmentation in cells;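 active means peak rise of 1.5-fold or more in the series; inconclusive means self-fluorescent or not available for retest; tested in PC3 cells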;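 further: first round at 10 µM; read as green reporter fluorescence; hits show the peak of a series up to 25 µM; 1 = signal of infected wells without compound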
# GALR2 agonist: GALR2 receptor agonists, primary screen, cell-based; Galanin receptor type 2 (Homo sapiens), O43603; GALR2-expressing cells, agonist activation read-out; activation, %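 (tested at 5 µM)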; 140,000 tested, 0.48% active;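 active means above mean plus 3 SD of all compounds, about 5% in these data, not always enough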;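 further: 0% = vehicle buffer wells and 100% = reference agonist at full effect; tested in CHO reporter cells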
# INS promoter inh: inhibitors of insulin promoter-driven GFP, primary screen, imaging, TRM-6 cells (human fetal islet line), eGFP reporter, cell count; reporter expression induced with tamoxifen; inhibition, % at 2 µM; 130,000 tested, 0.9% active; AID 1273, 2008;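 active means inhibition above the mean plus 3 SD, with well images judged a real hit on visual review, cut at about 60% in these data, passing the limit was not always enough; inconclusive means inhibition over the cutoff but images rejected on review; inactive means inhibition not above the cutoff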
# INS promoter inh cell count: also measured in INS promoter inh; calls as there; normalized cell count, %; measured here: cell count, toxicity; reference of the scale not given here;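 cells exposed to compound for 48 h; stained nuclei by imaging scaled within each plate; lower means fewer cells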
# HSV augment primary fold: recorded beside HSV augment, whose call it bears; fold increase; compound at 10 µM; measured here: primary screen fold increase 10 uM; tested in PC3 cells;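 GFP signal in the first replicate; 1 = infected wells without compound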
# * = called active by the depositor; i = inactive; ? = inconclusive; . = not tested or not shown.
SMILES,PKD1 inh,RGS16-Gao HTS,HSV augment,HSV augment primary fold,GALR2 agonist,INS promoter inh,INS promoter inh cell count
COc1ccccc1C1=NOC(COC(=O)c2ccc([N+](=O)[O-])cc2)C1 (centres undefined),.,105.5,i,0.93,.,.,.
CC(C)OC(=O)CSc1nnc(-c2cnccn2)n1-c1ccc(Cl)cc1,7.9,102.2,i,1.27,-1.2,-18.2,119.3
COc1ccc(-c2cc(C(F)(F)F)nc(SCCC(=O)N3CCOCC3)n2)cc1,4.4,102.0,i,0.957,0.5,-8.1,165.8
COc1ccc(OCc2ccc(-c3nc4ccccc4c(=O)n3N)o2)cc1,2.8,96.4,i,0.99,-1.8,.,.
O=C(Cn1nc(Cc2cccnc2)c2ccccc2c1=O)NCc1ccc(F)cc1,7.1,108.7,i,0.98,-2.7,.,.
O=C(Nc1ccc(F)cc1)Nc1ccccc1C(=O)NCCN1CCNC1=O,.,102.7,i,1.02,.,.,.
COc1ccc(C(=O)N(NC(=O)Oc2ccccc2)C(C)(C)C)cc1,-4.0,167.0,i,0.92,-1.4,-55.6,25.8
O=C(O)CCC(NC(=O)OCc1ccccc1)C(=O)O (centres undefined),-21.8,102.6,i,0.93,-2.5,.,.
CC1(C)CC2CC(C)(CN2C(=O)c2ccccc2)C1 (centres undefined),-3.2,104.4,i,1.07,.,.,.
O=C(Nc1nnc(-c2cccnc2)o1)c1ccccc1Cl,1.8,104.5,i,0.94,.,.,.
CCCS(=O)(=O)N1CCCC(C(=O)NCCCN(C)Cc2ccccc2)C1 (centres undefined),-14.2,92.1,i,1.02,-1.1,.,.
O=C(O)c1ccc2c(c1)CCC2,-2.0,105.2,i,0.98,.,.,.
O=C(CCc1nc2ccccc2[nH]c1=O)OCC(=O)N1CCc2ccccc21,-0.1,113.4,i,0.92,-0.7,9.1,99.6
Cc1cc(OCC(=O)Nc2ccncc2)ccc1Br,4.9,105.5,i,1.03,-2.9,-60.0,127.7
Fc1ccc(N2CCN(C(c3cccs3)c3nnnn3C3CCCC3)CC2)cc1 (centres undefined),0.9,100.4,i,0.82,-0.6,-35.7,111.4
Cc1nc(SCC(=O)Nc2ccc(C)c(F)c2)c2oc3ccccc3c2n1,2.7,102.4,i,0.73,-1.6,-52.8,160.6
O=C(Nc1cccc(S(=O)(=O)N2CCCC2)c1)c1cc(-c2ccccn2)nc2ccccc12,-1.4,100.7,i,0.9,.,.,.
COc1cc(C(=O)NC(=S)Nc2ccccc2[N+](=O)[O-])cc(OC)c1OC,-2.6,100.8,i,1.05,.,29.4,121.1
Cc1noc(C)c1S(=O)(=O)N1CCC(C(=O)N2CCN(c3ccc(Cl)cc3)CC2)CC1,-3.8,111.2,.,.,-2.5,14.3,105.4
O=C(O)c1oc2ccccc2c1CSCc1ccccc1,5.4,103.6,i,1.04,.,18.2,123.1
COc1ccc(CCNC(=O)CSc2nc(C)cs2)cc1,-13.0,104.8,i,0.96,0.0,.,.
CCOc1ccc(-c2nnc(SCC(=O)N(CC)CC)n2N)cc1,-8.6,85.7,i,0.88,-2.8,.,.
COc1ccc(Nc2nc(-c3cccc([N+](=O)[O-])c3)nc3ccccc23)cc1,6.6,125.8,i,0.74,-0.2,-28.6,63.4
CN(C)c1ccc(-c2ccc([C@H]3[C@@H]4C=CCC[C@@]4(C)C(=O)N3Cc3ccccc3)c(F)c2)cc1,.,96.0,i,0.88,.,.,.
O=C(Cn1nnc2ccccc21)NNC(=S)NC1CCCCC1,-4.4,115.4,i,0.93,.,.,.
CCCCN1CC(O)=C(c2nc3ccccc3[nH]2)C1=N,-11.8,102.5,.,.,-0.3,.,.
O=C(CN1CCCCCC1)NCCc1ccc(F)cc1,-10.4,99.9,i,0.8,-0.7,.,.
CCN(CC)C(=O)CSc1nnc2nnc3cc(Cl)ccc3n12,.,106.7,?,.,.,.,.
COc1ccccc1NC(=O)Cn1nnc(C(=O)Nc2ccccc2)c1N,-7.6,105.2,i,0.933,0.2,41.7,78.1
C/C(=N/NC(=O)c1cccs1)c1cccc(NC(=O)C2CC2)c1,-5.9,95.5,i,1,-2.2,.,.
Clc1ccc(CN2CCC(c3nc4ccc(Cl)cc4[nH]3)CC2)cc1,-9.1,100.0,.,.,-0.6,-20.0,140.1
COCC(=O)Nc1cc(C(=O)OC)cc(C(=O)OC)c1,-7.2,96.9,i,0.97,-1.1,.,.
O=C(NCc1ccccc1)NC1CC2CCC(C1)N2Cc1ccco1 (centres undefined),-3.4,106.7,i,0.97,-1.4,.,.
CCC(C(=O)OCC(=O)Nc1c(C)n(C)n(-c2ccccc2)c1=O)c1ccccc1 (centres undefined),0.1,97.2,i,0.8,-0.3,21.6,68.8
COC(=O)Cc1ccc(NC(=S)N2CCCCC2C)cc1 (centres undefined),-15.2,96.2,i,0.93,.,.,.
COc1ccc(C2c3c(ncn(CCN4CCOCC4)c3=N)Oc3ccc4ccccc4c32)cc1 (centres undefined),-6.4,102.6,i,0.89,0.1,-10.8,108.0
Cc1ccc(-c2nn(-c3ccccn3)c(=O)c3ccccc23)cc1,-2.2,103.3,i,0.96,.,23.8,120.3
COc1ccc(-c2ccnc(SCC(=O)c3ccc(Br)cc3)n2)cc1,8.6,39.3,i,1.07,0.0,31.2,78.5
COC(=O)c1cc(COc2ccc3c4c(c(=O)oc3c2)CCCC4)c(C)o1,-9.6,103.7,.,.,-1.3,23.1,92.4
O=C(Nc1nnc(SCc2c(Cl)cccc2Cl)s1)C1CCCO1 (centres undefined),1.8,99.3,i,0.8,-3.5,0.0,121.6
CC1Cc2cc(/C(O)=C3/C(=O)C(=O)N(CCCn4ccnc4)C3c3ccncc3)ccc2O1 (centres undefined),-5.8,107.6,i,0.97,-3.8,58.3,113.0
COc1cc(NC(=S)NCCc2ccc(S(N)(=O)=O)cc2)c(OC)cc1Cl,10.5,102.2,i,1.18,.,-11.8,88.8
CC(C)(C)c1ccc(OCCn2ccccc2=O)cc1,-6.5,99.7,i,0.86,-1.3,-35.7,162.7
CCOC(=O)N1CCN(C(=O)c2ccc(SC)cc2OC)CC1,-7.3,105.0,i,1.03,.,.,.
COc1ccc(Cc2c(O)nc(SC)n(C(C)=O)c2=O)cc1,-5.4,101.4,i,0.99,-0.1,33.3,81.4
Cn1nc(C(C)(C)C)cc1C(=O)NNC(=O)c1cccc(Cl)c1,.,103.0,i,0.99,.,.,.
O=C(c1ccccc1)c1cccn1CC(=O)N1CCN(C2CCCCC2)CC1,-6.8,104.7,i,0.89,-0.6,-13.3,65.1
CC(=O)c1c(C)nc2sc3c(=N)n(N)cnc3c2c1-c1ccc(Cl)cc1,2.1,107.9,?,.,-0.2,.,.
O=C(CCl)Nc1ccccc1C(=O)NCc1ccccc1,-7.4,97.5,i,0.89,.,.,.
COC(=O)c1cnn(-c2ccc(F)cc2F)c1/C=N/NC(N)=S,.,94.5,i,0.84,.,.,.
CCOC(=O)c1cc(C)n(CCCN2CCOCC2)c1C,1.1,102.6,i,1,-0.5,-86.2,63.5
O=c1c2ccccc2nc2c3ccccc3cnn12,-4.1,114.1,i,0.69,.,27.3,157.9
CCN1C(=O)/C(=C\N(C)C)c2ccccc21,-6.1,90.5,i,0.91,-1.9,37.5,83.8
CCCC(=O)Nc1nc2ccc(NC(=O)c3ccc(Br)o3)cc2s1,3.1,100.9,i,0.83,-0.3,28.6,97.3
Cc1ccc(S(=O)(=O)N(CC(=O)NCCSCc2ccco2)c2cc(C)ccc2C)cc1,9.1,.,i,0.907,-2.3,-81.5,90.4
CC(=O)OC1CC(C)(C)N(OC(=O)CCCN2C(=O)c3ccccc3C2=O)C(C)(C)C1,-3.2,110.8,i,1.03,-1.2,-7.4,117.2
Cn1ncc2c(N3CCOCC3)ncnc21,6.3,105.7,i,0.97,-0.2,21.4,111.9
CC(=O)Nc1ccc(S(=O)(=O)N2CCOCC2)cc1,-1.7,87.8,i,0.86,-0.4,-25.8,57.6
C=CCn1c(O)c(N=NC(=O)c2ccc3c(c2)OCO3)c2ccccc21,-5.2,99.5,i,1.01,-3.3,17.2,104.9
O=C(C1=C(O)C(=O)N(CCOCCO)C1c1cccs1)c1cccs1 (centres undefined),-5.1,99.2,i,1.02,-1.6,.,.

# Reprinted from the entries so far, 2 compounds:
SMILES,PKD1 inh,RGS16-Gao HTS,HSV augment,HSV augment primary fold,GALR2 agonist,INS promoter inh,INS promoter inh cell count
CC1Cc2cc(/C(O)=C3/C(=O)C(=O)N(CCCn4ccnc4)C3c3ccncc3)ccc2O1 (centres undefined),-5.8,107.6,i,0.97,-3.8,58.3,113.0
COc1cc(NC(=S)NCCc2ccc(S(N)(=O)=O)cc2)c(OC)cc1Cl,10.5,102.2,i,1.18,.,-11.8,88.8

# Next section:
SMILES,PKD1 inh,RGS16-Gao HTS,HSV augment,HSV augment primary fold,GALR2 agonist,INS promoter inh,INS promoter inh cell count
CCc1nc(SCC(=O)N2CCN(c3ccccc3)CC2)c2c(=O)n(C)c(=O)n(C)c2n1,-1.9,124.4,i,0.92,.,.,.
CC(=O)Nc1ccc(NC(=O)C(C)OC(=O)c2ccccc2C(=O)c2ccc(Cl)c([N+](=O)[O-])c2)cc1 (centres undefined),-2.0,39.6,i,0.45,-2.1,.,.
O=C1C2CC=C(Cl)CC2C(=O)N1CCC[n+]1cccc2ccccc21 (centres undefined),-7.6,95.1,i,0.89,-1.6,43.3,110.1
O=C(Nc1nnc(-c2ccco2)o1)c1cccc(N2C(=O)CCC2=O)c1,-4.2,97.6,i,0.91,.,.,.
[O-][N+]12CCCCC1CCCC2CO (centres undefined),.,96.9,i,1.07,.,.,.
Cc1ccc(S(=O)(=O)N(c2cccc(C)c2)C2CCS(=O)(=O)C2)cc1 (centres undefined),-5.2,97.0,i,1.12,0.1,29.2,74.2
O=[N+]([O-])c1cc(S(=O)(=O)N2CCCC2)ccc1N/N=C/c1ccncc1,10.0,84.6,i,0.94,-1.9,16.7,138.4
O=C1CCCC2=C1C(c1ccc(O)c(O)c1)Nc1ccc3ncccc3c12 (centres undefined),-3.4,86.9,i,0.88,.,6.2,64.9
Cc1ccccc1NC1=NC(C)(C)N=C(N)N1,-2.9,98.8,i,0.97,-4.5,0.0,103.2
CC1(C)CC(=O)C(C=Nc2ccc(O)cc2)=C(O)C1,10.0,100.3,i,0.84,-0.8,.,.
O=C(/C=C/c1ccccc1)N1CCC(N2CCC(C(=O)N3CCOCC3)CC2)CC1,-6.4,105.8,i,1.02,.,.,.
CCOC(=O)c1ccc(N/C(=N\S(=O)(=O)c2ccccc2C)c2ccccc2)cc1,5.0,97.1,i,0.89,-0.1,-26.7,80.1
C/C(=N\O)c1cc(Cl)cc(Cl)c1O,.,87.8,i,1.03,.,.,.
Nn1cnc2c(c1=O)C1(CCCCC1)Cc1ccccc1-2,2.4,97.4,i,0.91,0.2,0.0,149.9

# 13 of the compounds above, with tabs.
smiles	PKD1 inh	RGS16-Gao HTS	HSV augment	HSV augment primary fold	GALR2 agonist	INS promoter inh	INS promoter inh cell count
COc1ccccc1C1=NOC(COC(=O)c2ccc([N+](=O)[O-])cc2)C1 (centres undefined)	.	105.5	i	0.93	.	.	.
CC(C)OC(=O)CSc1nnc(-c2cnccn2)n1-c1ccc(Cl)cc1	7.9	102.2	i	1.27	-1.2	-18.2	119.3
COc1ccc(-c2cc(C(F)(F)F)nc(SCCC(=O)N3CCOCC3)n2)cc1	4.4	102.0	i	0.957	0.5	-8.1	165.8
COc1ccc(OCc2ccc(-c3nc4ccccc4c(=O)n3N)o2)cc1	2.8	96.4	i	0.99	-1.8	.	.
O=C(Cn1nc(Cc2cccnc2)c2ccccc2c1=O)NCc1ccc(F)cc1	7.1	108.7	i	0.98	-2.7	.	.
O=C(Nc1ccc(F)cc1)Nc1ccccc1C(=O)NCCN1CCNC1=O	.	102.7	i	1.02	.	.	.
COc1ccc(C(=O)N(NC(=O)Oc2ccccc2)C(C)(C)C)cc1	-4.0	167.0	i	0.92	-1.4	-55.6	25.8
O=C(O)CCC(NC(=O)OCc1ccccc1)C(=O)O (centres undefined)	-21.8	102.6	i	0.93	-2.5	.	.
CC1(C)CC2CC(C)(CN2C(=O)c2ccccc2)C1 (centres undefined)	-3.2	104.4	i	1.07	.	.	.
O=C(Nc1nnc(-c2cccnc2)o1)c1ccccc1Cl	1.8	104.5	i	0.94	.	.	.
CCCS(=O)(=O)N1CCCC(C(=O)NCCCN(C)Cc2ccccc2)C1 (centres undefined)	-14.2	92.1	i	1.02	-1.1	.	.
O=C(O)c1ccc2c(c1)CCC2	-2.0	105.2	i	0.98	.	.	.
O=C(CCc1nc2ccccc2[nH]c1=O)OCC(=O)N1CCc2ccccc21	-0.1	113.4	i	0.92	-0.7	9.1	99.6

# Hits appear at their usual frequency; any-hit rate near 1.3%.
